Screening data (PubChem BioAssay)
HSD17B inh = inhibitors of human HSD17B10 dehydrogenase. Q99714. recombinant HSD17B10, NADH fluorescence kinetic; many of its hits are not listed in these tables. Potency, µM (series often up to 57.1 µM), inactives show at the highest dose activity change, negative = inhibition, actives largely listed as inhibitors. 75,000 compounds, 7.6% hits. AID 893; active = well fitted inhibition curve with a large enough effect; inconclusive = small, poorly fitted or top-dose-only effect; inactive = no such curve, though single readings can be large or run the other way;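 note: the protocol describes HADH2 (HSD17B10) and not the HSD17B4 of the title; nearly all actives have a fitted effect of over 70% in size; most hits overshoot -100% by far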
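Activity followed as NADH fluorescence increase (ex 360, em 450 nm) every 30 seconds for 4 min, using final 90 uM beta-hydroxybutyryl CoA and 1 mM NAD+. Recombinant His-tagged enzyme, 20 nM, pH 9.0 Tris buffer, 15 min compound preincubation.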
An asterisk follows results filed as active; ? = inconclusive; & = joins results of further samples; [ ] = remark or other dose. % is set by controls: 0 for no effect and ±100 for the full control effect; potency is the fitted concentration of half-maximal effect. Not all compounds are listed; count on the stated rates, not on these rows.

SMILES | HSD17B inh
CCOc1ccccc1OCC(=O)Nc1nnc(C)s1 | 12%
COc1ccc(OC)c(C(O)CNC(=O)CN)c1 (stereo not drawn) | 2%
CN(c1cccc(NC(=O)CCSc2ccccc2)c1)S(C)(=O)=O | 0%
O=C1CCc2cc(S(=O)(=O)N3CCN(c4cccc(C(F)(F)F)c4)CC3)ccc2N1 | 8%
CCOC(=O)N1CCC(NC(=O)C2CCN(S(=O)(=O)c3cccs3)CC2)CC1 | 6%
CCCC/C=C/C(NC(=O)OCc1ccccc1Cl)c1ccccc1 (stereo not drawn) | -8%
COC(=O)C1=C(C)N(Cc2ccccc2)C2=C(C(C)=O)C[C@@](O)(C(=O)OC)C(=O)N2C1c1ccccc1 (stereo partly drawn) | 2%&3%[11.4 µM]
Cc1ccc(N(CC(=O)NCc2ccco2)C(=O)CCC(=O)Nc2ccccn2)cc1C | 4%
COc1ccc(NC(=O)N2CCC3(CC2)CCN(C(=O)c2cccn2C)CC3)cc1 | 16%
CC1CC(c2ccccc2)n2nc(N3C(=O)c4ccccc4C3=O)nc2N1 (stereo not drawn) | 2%
COC(=O)C(C)Sc1nc2c(c(=O)n(C)c(=O)n2C)n1Cc1cccc(C)c1 (stereo not drawn) | 1%
O=C(CN1CCN(c2nc(-c3ccc(F)cc3)cs2)CC1)NCc1ccc2c(c1)OCO2 | -4%

New compounds follow:
SMILES | HSD17B inh
CCOC(=O)N1CCC(NC(=O)c2ccc3c(c2)sc2nc(-c4cccc(OC)c4)cn23)CC1 | 32µM*
Cc1[nH]nc2c1C(c1ccc(-c3ccccc3C#N)o1)C(C#N)=C(N)O2 (stereo not drawn) | -7%
O=c1c2ccccc2nnn1CSc1nc2ccccc2c(=O)n1Cc1ccco1 | -6%
O=C(CSc1nc2ccccc2o1)N1CCCC1 | 5%
CCOc1ccc(C(=O)Nc2cccc(-c3nc4cccnc4o3)c2)cc1Cl | -2%
N#Cc1c2n(c3c(-c4ccccc4)ncnc13)CCC2 | 32µM*
COc1ccccc1Oc1coc2c(CN3CCN(C)CC3)c(O)ccc2c1=O | 32µM*
O=C(CSc1ccccc1)NCc1cccnc1 | -6%
COc1ccc(C2C(C(=O)N3CCN(c4ccccc4)CC3)c3ccccc3C(=O)N2C)cc1 (stereo not drawn) | 12%
CSc1nnc(-c2ccc(NC(=O)CCc3ccccc3)cc2)n1C | -20%
CC(CN1CCOCC1)(NS(=O)(=O)c1ccccc1)c1ccccc1 (stereo not drawn) | 0%
OC(C#CCN1CCOCC1)(c1ccccc1)C1CC1 (stereo not drawn) | 7%

Additional entries:
SMILES | HSD17B inh
Cc1ccccc1CS(=O)(=O)Cc1ccc(C(=O)NCc2ccco2)o1 | -18%
O=C(O)CCCNS(=O)(=O)c1ccc(F)cc1 | 3%
Cc1cc(-n2c(C)cc(C(=O)CN3C(=O)NC4(CCCC4)C3=O)c2C)no1 | 0%
Cc1c(NC(=O)COC(=O)c2cc3c4ccccc4n(C)c3s2)c(=O)n(-c2ccccc2)n1C | 16µM*
CCCCc1nc2ccccc2c(=O)n1NC(=O)c1c(O)c2cccc3c2n(c1=O)CC3 | 2%
CCC(=O)N1CCc2cc(Br)cc(S(=O)(=O)NCC3CCCN3CC)c21 (stereo not drawn) | 3%
O=C(NCCCn1ccnc1)c1cc(S(=O)(=O)N2CCOCC2)c(Cl)cc1Cl | -11%
CCOc1ccc(N2CC(C(=O)Nc3ncccc3C)CC2=O)cc1 (stereo not drawn) | -1%
CC(C)N(C(=O)CSc1nnc(NC(=O)C2CCC2)s1)C(C)C | 3%
COc1ccc(-c2ccc(-c3nnc(-c4cc(OC)ccc4OC)o3)cc2)cc1 | 3.2µM*
CCCCn1nc(C(=O)NC2=NCCS2)c2ccccc2c1=O | -5%
N#Cc1cn(-c2ccccc2)nc1-c1ccc2c(c1)OCCO2 | 20µM*

More structures follow.
SMILES | HSD17B inh
CN1CCN(S(=O)(=O)c2ccc(N(C)CC(=O)Nc3ccc(F)cc3)nc2)CC1 | -4%
COc1cccc(-c2cncnc2NCCN2CCOCC2)c1 | -7%
O=C(NCc1ccco1)C(c1ccccc1)N(Cc1cccnc1)C(=O)Cn1nnc2ccccc21 (stereo not drawn) | 3%
CCCCN1CSC(=S)N(Cc2ccccc2)C1 | -18%[11.4 µM]
CC1CCN(C(=O)CN2C(=O)C(C)(C)Oc3ccc(C(=O)NC4CCCC4)cc32)CC1 | 2%
CCC1=C(OC(=O)N(CC)CC)N2C(=O)OC(=NCCOC)[C@]2(C)[C@H]2C1=CC[C@H]1C(=O)N(CC(=O)OC)C(=O)[C@H]12 | -6%
CC(C(=O)NCc1cccnc1)N1C(=O)c2ccccc2C1=O (stereo not drawn) | 0%
CCn1cc(CNC(=O)c2cc(Cl)ccc2OC)c(C)n1 | 0%
C=CCn1c(SCC(=O)Nc2cccc(C(=O)OC)c2)nnc1C(C)NC(=O)c1cccs1 (stereo not drawn) | 6%
O=c1c(-c2cccc(Cl)c2)nc2cncnc2n1-c1ccccc1 | -29%
CCCc1nc2oc(C(=O)OCC)c(N)c2c2c1COC(C)(C)C2 | 25µM*
Cc1ccc(S(=O)(=O)N2CCC(C(=O)N3Cc4ccccc4C3)CC2)cc1 | 4%

Other records follow.
SMILES | HSD17B inh
CCN(C(=O)COc1ncnc2scc(-c3ccc(F)cc3)c12)C1CCS(=O)(=O)C1 (stereo not drawn) | -12%
CC(Cc1cccs1)NC(=O)NC1CCCCC1 (stereo not drawn) | 12%
CCNC(=O)[C@@H]1O[C@@H](n2cnc3c(N)nc(NCCc4ccc(CCC(=O)O)cc4)nc32)[C@H](O)[C@@H]1O | -15%
Cn1c(=O)c2c(nc(N3CCCCC3)n2CCSc2nc3ccccc3o2)n(C)c1=O | 0%
CCc1ncc(C(=O)c2ccc(OC)cc2)n1C | 5%
CC(=O)N1CCC2(CC1)CN(Cc1cc(C(F)(F)F)cc(C(F)(F)F)c1)C2 | 2%
COC(=O)CN(c1ccccc1)S(=O)(=O)c1ccccc1 | -2%
O=C(c1ccco1)N1CCN(c2ncnc3c2cnn3-c2ccccc2)CC1 | 8%
COc1ccccc1CNc1ncnc2ccc(-c3ccoc3)cc12 | ?
COC(=O)c1[nH]c2cccc(OC)c2c1NC(=O)CCN1CCC(C)CC1 | 32µM*
CCOC(=O)N1CCN(C(=O)COc2ccccc2Cl)CC1 | 5%
CCc1ccc(NC(=O)N(C2CCC(C)CC2)C2CCN(C(C)=O)CC2)cc1 (stereo not drawn) | -4%

Next section
SMILES | HSD17B inh
CCCn1nnnc1SCC(=O)NCc1ccc(OC)cc1 | 3%
O=c1[nH]c2ccsc2c(=O)n1-c1ccc(F)c(Cl)c1 | -15%
CN(CC(=O)N1CCc2ccccc21)S(=O)(=O)c1ccc(Br)s1 | -4%
Cc1ccc(C(=O)Nc2nc3ccccc3n2CCN2CCCC2)cc1 | -7%
COc1cccc(-n2c(COc3ccc(C)cc3)nnc2SCC(=O)O)c1 | ?
Cn1c(=O)[nH]c(=O)c2c1nc(N1CCN(Cc3ccccc3)CC1)n2CCCc1ccccc1 | 3%
COc1ccc(C)cc1S(=O)(=O)Nc1ccc(F)c(Cl)c1 | -2%
O=C(CN(CC1CCCO1)C(=O)CNS(=O)(=O)c1ccccc1)NCc1ccccc1 (stereo not drawn) | 4%
O=S(=O)(c1cccc(-c2nnc(SCc3nc4ccccc4s3)o2)c1)N1CCOCC1 | -10%
COc1ccccc1-c1cncnc1NCCc1cnc[nH]1 | -6%
O=C(O)c1cccc(C(=O)Nc2cccc(NC(=O)C3CCCO3)c2)c1 (stereo not drawn) | 1%
Nc1nc(SCC(=O)N2CCCc3ccccc32)n(-c2ccccc2)n1 | 1%

Among those listed so far, these contain a furan ring, fused or not:
SMILES | HSD17B inh
Cc1ccc(N(CC(=O)NCc2ccco2)C(=O)CCC(=O)Nc2ccccn2)cc1C | 4%
Cc1[nH]nc2c1C(c1ccc(-c3ccccc3C#N)o1)C(C#N)=C(N)O2 (stereo not drawn) | -7%
O=c1c2ccccc2nnn1CSc1nc2ccccc2c(=O)n1Cc1ccco1 | -6%
Cc1ccccc1CS(=O)(=O)Cc1ccc(C(=O)NCc2ccco2)o1 | -18%
O=C(NCc1ccco1)C(c1ccccc1)N(Cc1cccnc1)C(=O)Cn1nnc2ccccc21 (stereo not drawn) | 3%
CCCc1nc2oc(C(=O)OCC)c(N)c2c2c1COC(C)(C)C2 | 25µM*
O=C(c1ccco1)N1CCN(c2ncnc3c2cnn3-c2ccccc2)CC1 | 8%
COc1ccccc1CNc1ncnc2ccc(-c3ccoc3)cc12 | ?

(further entries)
SMILES | HSD17B inh
CCOC(=O)C1=C(C)NC(C)=C(C(=O)OCC)C1C(=O)OCC(=O)N1CCC(C)CC1 | -12%
O=C(CC1(O)C(=O)Nc2cc(Cl)cc(Cl)c21)c1ccncc1 (stereo not drawn) | -4%
CC12C=CC3(O1)C(C(=O)N(c1cccnc1)C3C(=O)NC1CCCCC1)C2C(=O)Nc1ccccc1 (stereo not drawn) | 7%
COc1ccc(NC(=O)CC2Oc3ccc(C)cc3NC2=O)cc1 (stereo not drawn) | -4%
COc1cccc(NC(=O)c2cccc(OC)c2OC)c1 | 7%
O=C(Nc1nnc(N2CCCCCC2)s1)c1cc(-c2ccc(Br)cc2)on1 | ?
Cc1ccc(N2OC3C(=O)NC(=O)C3C2c2ccco2)cc1 (stereo not drawn) | 4%
COCCn1cnc2c(c1=O)c1nc3ccccc3nc1n2/N=C/c1cccc(OC)c1OC | 8%
COc1ccc(OC)c(C(=O)C2COC(=O)C2)c1 (stereo not drawn) | -16%
COC(=O)[C@H](C)[C@@H]1C[C@@]1(C)[C@@H](NC(=O)OCc1ccccc1)c1ccccc1 | 0%
Cc1cccc(OCCCCCNCCO)c1 | 1%
Cc1cnc(CNc2ncncc2-c2ccc(N(C)C)cc2)cn1 | -2%

Later entries.
SMILES | HSD17B inh
O=C(Cn1cnc2c(oc3ccccc32)c1=O)NCC1CCCO1 (stereo not drawn) | 6%
O=C(NCCO)c1ccc(Cl)cc1 | 7%[11.4 µM]
COc1ccc(OCC(=O)Nc2cccc(-c3nc4ccccc4o3)c2)cc1 | 25µM*
Cc1c(NC(=O)c2cc(=O)[nH]c(=O)[nH]2)c(=O)n(-c2ccccc2)n1C | 5%
CC(C)(C)n1ncc2c(=O)n(Cc3c(F)cccc3Cl)cnc21 | 0%
O=C(COC(=O)c1ccc(N2CCCC2=O)cc1)NCc1ccco1 | -1%
CCOc1ccc(Cn2nnc(C(=O)NCCc3ccccc3)c2N)cc1 | 9%
Cc1ccc2[nH]c(=O)c3cc(C(=O)NCCN4CCN(C)CC4)sc3c2c1 | 25µM*
CCOC(=O)CSc1ncnc2c1cnn2-c1ccc(Cl)cc1 | 0%
COC(=O)c1ccc(C2c3c(oc4ccccc4c3=O)C(=O)N2CCCN2CCOCC2)cc1 (stereo not drawn) | 1%
COC(=O)c1ccc(CSc2nnnn2C)o1 | 9%
Cn1c(CCNC(=O)c2ccc(F)cc2)nc2ccccc21 | 6%

(next part)
SMILES | HSD17B inh
CCCCN=c1sc(C(=O)OC)cc(=O)n1CCCC | 6%
CCN1CCN(C(CNC(=O)c2ccc3c(c2)OCO3)c2cccnc2)CC1 (stereo not drawn) | -10%
CCOC(=O)c1sc(NC(=O)C2CC2)cc1C | -4%
COCCNc1cc(-c2c(C)noc2C)ncn1 | 4%
CCCCS/C(=C(/C#N)C(N)=O)c1cc2c([nH]1)CCCC2 | ?
Cc1ccc(-n2ncc3c(=O)n(CC(=O)OCc4ccccc4)cnc32)cc1 | -2%
CC1CCN(CC[C@@H]2CCCN2S(=O)(=O)c2cccc(O)c2)CC1 | -11%
COC(=O)CSc1nc2sc3c(c2c(=O)n1-c1ccccc1)CCN(C)C3 | ?
CCSC1(SCC)N=C(N)C2(C#N)C(c3ccccc3)NC3=C(CCC3)C12C#N (stereo not drawn) | -1%
COc1ccc(OC)c(S(=O)(=O)NCc2ccccc2)c1 | 6%
CCOc1ncccc1C(=O)Nc1ccccc1C(=O)NCc1ccc2c(c1)OCO2 | 25%
O=C(Nc1c(C(=O)O)oc2ccc(Br)cc12)c1ccccc1 | -1%

Next part; the last four above are carried over.
SMILES | HSD17B inh
CCSC1(SCC)N=C(N)C2(C#N)C(c3ccccc3)NC3=C(CCC3)C12C#N (stereo not drawn) | -1%
COc1ccc(OC)c(S(=O)(=O)NCc2ccccc2)c1 | 6%
CCOc1ncccc1C(=O)Nc1ccccc1C(=O)NCc1ccc2c(c1)OCO2 | 25%
O=C(Nc1c(C(=O)O)oc2ccc(Br)cc12)c1ccccc1 | -1%
CCCCn1c(CN2CCOCC2)nc2c1c(=O)n(C)c(=O)n2C | 25µM*
CN(C)CC(C(=O)c1ccccc1)c1ccccc1 (stereo not drawn) | -5%
Cc1ccc(-c2nnn(CC(=O)N(c3cccc(O)c3)C(C(=O)NC(C)(C)C)c3cccs3)n2)o1 (stereo not drawn) | 0%
N#CC1=C2SCN(c3ccccc3)CN2C(=O)CC1c1cccs1 (stereo not drawn) | 13µM*
COC(=O)c1cn(NC(=O)c2cccc(N(C)C)c2)c(=O)c2ccccc12 | -2%
O=C(NCCCN1CCOCC1)c1cc(-c2ccccc2)on1 | 4%
O=C(c1cc(-c2ccccc2)on1)N1CCCC1 | 5%
O=C(CCC1CCCC1)N1CCN(S(=O)(=O)Cc2ccccc2)CC1 | -11%
